2A StopGo: FMDV 2A StopGo reporter, luciferase signal. human cells with a luciferase reporter of 2A StopGo recoding; control for the full effect not named in the record. Potency, µM (highest dose often 57.9 µM), without a hit: at the top dose signal change, negative = less light. 410,000 compounds, 1.2% hits. AID 1159524; active = well fitted falling curve with a large enough effect; inconclusive = small, poorly fitted or top-dose-only effect; inactive = no such curve, though single readings can be large or run the other way; tested in HEK293T cells; also: % is scaled to controls: 0 for no effect and ±100 for the full control effect; nearly all actives have a fitted effect of over 45% in size; luciferase light after 4 h
RE007 growth inh: less growth of the S. pombe RE007 Vpr strain; 360,000 compounds, 0.21% hits; S. pombe RE007 Vpr strain, BacTiter-Glo ATP luminescence, 24 h; control for the full effect not named in the record; Potency, µM (series often up to 92.2 µM), inactives show at the top dose activity change, negative = less growth; AID 651644; active = well fitted falling curve with a large enough effect; inconclusive = small, poorly fitted or top-dose-only effect; inactive = no such curve, though single readings can be large or run the other way;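 also: % is scaled to controls: 0 for no effect and ±100 for the full control effect; nearly all actives have a fitted effect of over 50% in size; the assay follows cell death caused by Vpr and the record does not say whether a fall means rescue or toxicity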
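Fission yeast RE007 carrying one integrated HIV-1 vpr copy, seeded at OD 0.01 in PMG+AL medium with 23 nL pinned compound. Grown 24 h at 30 degrees; viability read by BacTiter-Glo luminescence after 5 min.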
NS1 function inh: influenza NS1 inhibition. S. cerevisiae slowed by influenza A NS1, growth recovery by OD600. Potency, µM (top dose mostly 46.1 µM), inactives show at the top dose activity, positive = more growth. 270,000 compounds, 0.4% hits. AID 2326; active means well fitted rising curve with a large enough effect; inconclusive means small, poorly fitted or top-dose-only effect; inactive means no such curve, though single readings can be large or run the other way; also: nearly all actives have a fitted effect of over 50% in size
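A cell-based growth assay was used: compounds that relieve NS1-induced slow growth of budding yeast raise OD600. Assay medium was yeast nitrogen base with ammonium sulphate and -URA supplement, pH 6.0, with 2% galactose.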
Cruzain inh noDet: cruzain (T. cruzi) inhibition without detergent. 200,000 compounds, 2.3% hits. P25779. Potency, µM, for the others: max response, negative = inhibition, usual class: inhibitors. purified cruzain, Z-FR-AMC fluorescence, no detergent;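 also: plate controls were enzyme without inhibitor for no effect and buffer without enzyme for full effect; nearly all actives have a fitted effect of over 40% in size; top concentration of the series not given in the record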
Target sequence (P25779 123-467 limits assumed): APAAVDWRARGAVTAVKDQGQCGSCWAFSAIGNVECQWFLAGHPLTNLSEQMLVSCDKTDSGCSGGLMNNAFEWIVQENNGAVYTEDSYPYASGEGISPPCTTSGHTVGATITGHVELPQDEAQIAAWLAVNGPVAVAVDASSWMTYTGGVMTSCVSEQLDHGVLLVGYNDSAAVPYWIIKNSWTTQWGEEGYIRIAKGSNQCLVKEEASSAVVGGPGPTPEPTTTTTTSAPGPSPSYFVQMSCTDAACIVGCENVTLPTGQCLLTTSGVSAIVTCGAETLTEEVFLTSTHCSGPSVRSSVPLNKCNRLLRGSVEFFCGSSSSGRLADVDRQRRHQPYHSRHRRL
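Purified cruzain at 1.5 nM, pre-incubated 15 min with compound at room temperature in 100 mM sodium acetate pH 5.5, 5 mM DTT, 0.00005% Triton X-100. Reaction started with 2 uM Z-FR-AMC; AMC fluorescence increase over 60 s gives rate.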
SARS PLP yeast: blocks SARS-CoV papain-like protease in a yeast assay. S. cerevisiae expressing SARS-CoV PLpro, growth rescue; control for the full effect not named in the record. Potency, µM (highest dose often 32.9 µM), without a hit: top-dose activity, positive = growth rescue. 330,000 compounds, 0.19% hits. AID 485353; active means well fitted rising curve with a large enough effect; inconclusive means small, poorly fitted or top-dose-only effect; inactive means no such curve, though single readings can be large or run the other way; also: 0% is about no effect; nearly all actives have a fitted effect of over 55% in size; growth read by luminescence after 48 h
Cruzain Triton: cruzain (T. cruzi) inhibition with detergent. Potency, µM, without a hit: max response, negative = inhibition, usual class: inhibitors. 200,000 compounds, 0.43% hits. purified cruzain, Z-FR-AMC fluorescence, 0.01% Triton. AID 1478;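 also: plate controls were neutral wells for no effect and buffer without enzyme for full effect; nearly all actives have a fitted effect of over 40% in size; top concentration of the series not given in the record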
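15 min RT preincubation of 1.5 nM cruzain with compound, then 2 uM Z-FR-AMC added; kinetic AMC fluorescence, 60 s delta. Triton X-100 0.01%, pH 5.5.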
Lassa entry inh: Lassa virus entry inhibition | 300,000 compounds, 1.2% hits | AID 540256 | Potency, µM (top dose mostly 37.9 µM), inactives show at the top dose activity change, negative = inhibition, most hits filed as inhibitors | Lassa virus pseudotype entry inhibition, cell reporter; control for the full effect not named in the record; active means well fitted inhibition curve with a large enough effect; inconclusive means small, poorly fitted or top-dose-only effect, or effect the other way; inactive means flat fitted curve, though single readings scatter; tested in HEK293 cells; also: % is scaled to controls: 0 for no effect and ±100 for the full control effect; nearly all actives have a fitted effect of over 50% in size; luciferase read-out
MARV entry inh: inhibitors of Marburg virus binding or cell entry; Marburg virus pseudotyped entry inhibition, cell reporter; control for the full effect not named in the record; about a third of the inactives were read at about 46 µM; Potency, µM (titrated, usually from 37.8 µM), inactives show at the top dose activity change, negative = inhibition, usual class: inhibitors; 300,000 compounds, 1.8% hits; AID 540276; active = well fitted inhibition curve with a large enough effect; inconclusive = small, poorly fitted or top-dose-only effect, or effect the other way; inactive = flat fitted curve, though single readings scatter; tested in HEK293 cells; about a fifth of its hits are not listed in these tables; also: % is scaled to controls: 0 for no effect and ±100 for the full control effect; luciferase read-out
* marks the source's active call; other numbers are inactive results; ? = inconclusive; . = not tested or not shown; [ ] = dose if it differs, or a comment. Unless noted, calls follow the shape of the dose curve; as a rule, active = well fitted curve in the direction sought with a large enough effect; inconclusive = small, poorly fitted or top-dose-only effect, or another doubt; inactive = no such curve, though single readings can be large; an effect the other way counts as inactive or inconclusive. Potency is read from the fitted curve at half-maximal effect. Not a hit list; about 4.6% have a hit in one of these screens.

structure,2A StopGo,RE007 growth inh,NS1 function inh,Cruzain inh noDet,SARS PLP yeast,Cruzain Triton,Lassa entry inh,MARV entry inh
C[N+](C)(C)C/C=C1/COCO1,-17.0%,22.0%,-3.4%,-3.0%,5.6%,3.1%,13.2%,?
CNC(=O)[C@H]1O[C@H](n2cnc3c(NCc4cccc(I)c4)ncnc32)[C@@H](O)[C@@H]1O,-6.6%,.,.,?,.,0.3%,.,2.8%
O=C(NCc1ccc(F)cc1)C1CCN(S(=O)(=O)N2CCCC2)CC1,-3.5%,10.1%,.,.,-0.7%,.,-10.1%,9.3%
CCCNC(=O)COc1ccccc1[N+](=O)[O-],45.3%[activator],-1.3%,-3.9%,6.1%,11.6%,-0.9%,24.8%,11.6%
CCCc1nnc(NC(=O)c2ccncc2)s1,23.4%,7.6%,-21.7%,2.5%,?,1.2%,?,0.5%
O=C(Nc1ccccc1)C(CCCCN1C(=O)c2ccccc2C1=O)N1C(=O)c2ccccc2C1=O (stereo not given),-23.3%,-3.8%,.,.,.,.,1.1%,6.9%
O=C(Nc1nc(-c2ccccn2)cs1)c1cccc(-n2cnnn2)c1,-15.3%,8.3%,-6.5%,.,-0.9%,.,.,.
COc1cc(C(C2C(=O)CC(C)(C)CC2=O)C2C(=O)CC(C)(C)CC2=O)ccc1O,-12.3%,-6.7%,4.7%,.,4.0%,.,.,.
COC(=O)CCC(=O)NC(=S)Nc1c(C)cccc1C,-20.4%,-12.9%,14.2%,3.7%,-2.5%,3.1%,-17.8%,6.8%
COc1ccc(Cc2ccc(OC)c(N)c2)cc1N,.,-4.2%,10.9%,-9.2%,5.1%,0.8%,-8.2%,-0.2%
CCc1c(C)sc(NC(=O)c2cc(C)no2)c1C#N,25.9%,-25.8%,-105.0%,0.9%,-8.9%,-2.7%,.,.
O=C(OCC(=O)c1ccc(Cl)s1)c1ccccn1,8.9%,-1.6%,-8.0%,11.6%,-21.1%,-3.3%,29.2%,18.4%
Cc1ccc(C(=O)Nc2cc3c(cc2Cl)OCCCO3)cc1,63.4%[activator],-17.5%,-13.6%,-3.7%,0.7%,5.0%,?,?
Oc1ccc(O)c(-c2cnns2)c1,?,0.4%,17.2%,-5.0%,3.5%,-5.5%,-4.1%,?
O=C(COC(=O)c1ccc(NS(=O)(=O)c2ccc3c(c2)OCCO3)cc1)NC1CC1,11.6%,8.4%,0.9%,14.2%,2.4%,-0.5%,12.6%,-5.8%
COc1c(C)cccc1C(=O)NC(=S)Nc1ccc2c(c1)Cc1ccccc1-2,-4.0%,21.5%,2.8%,20µM*,-8.1%,2.4%,3.3%,15.7%
COc1ccccc1C1C(C(C)=O)=C(O)C(=O)N1c1ccc(O)cc1 (stereo not given),0.8%,6.4%,5.3%,.,2.9%,.,13.4%[46.1 µM],8.1%[46.1 µM]
O=C(c1ccc(Cn2c(=O)[nH]c3ccccc3c2=O)cc1)N1CCN(c2ccccc2)CC1,-22.7%,21.3%,-14.1%,5.7%,5.3%,-7.0%,1.3%,5.9%
O=C(NC(=S)N(CCO)Cc1ccccc1)c1ccc(S(=O)(=O)N2CCCC2)cc1,-1.5%,-15.3%,.,.,3.5%,.,6.2%,?
O=C(Nc1ccc2c(c1)OCO2)C1(S(=O)(=O)c2ccc(Cl)cc2)CC1,23.7%,-0.3%,-6.2%,-1.7%,7.0%,4.4%,38.4%[14.3 µM],-26.7%
O=S(=O)(c1ccc(F)cc1)N1CCN(CC2CC3C=CC2C3)CC1 (stereo not given),?,-1.7%,-2.1%,.,-1.2%,.,-9.4%,20.9%[46.1 µM]
CCOc1ccccc1-n1cc2c(c1-c1ccc(OC)cc1)c(=O)n(C)c(=O)n2C,-25.9%,.,.,-1.3%,.,-3.2%,13.4%[46.1 µM],-18.6%[46.1 µM]
O=C1NNC(c2ccccc2)=N/C1=C\c1ccc(Cl)cc1,10.0%,-10.1%,-2.2%,.,-0.9%,.,-4.4%,0.7%[46.1 µM]
Cc1cc2oc(C(=O)Nc3ccc(S(=O)(=O)N(C)c4ccccc4)cc3)cc(=O)c2cc1C,-15.9%,.,.,1.2%,.,-0.1%,?,?
COc1ccc(CCNS(=O)(=O)c2ccc3c(c2)n(C)c(=O)c(=O)n3C)cc1OC,-0.6%,4.8%,5.4%,-1.0%,1.7%,-0.9%,.,.
Cc1ccc(-n2c(O)c(C=Nc3ccccc3-c3n[nH]c(=S)[nH]c3=O)c3ccccc3c2=O)c(C)c1,?,-8.2%,24.5%,.,-0.9%,.,-13.4%[46.1 µM],?
CC(NS(=O)(=O)c1ccc(F)cc1)C(c1cccs1)N1CCN(C)CC1 (stereo not given),18.6%,6.8%,-5.5%,-14.1%,9.4%,1.9%,1.3%,-6.6%
CCc1ccc(OCCSc2nc3ccccc3n2CCC(=O)O)cc1,-5.4%,0.9%,-12.3%,.,6.9%,.,.,.
COc1ccccc1Cn1c(=S)[nH]c2cc(C(=O)NCCN3CCOCC3)ccc2c1=O,-13.0%,-0.9%,-17.1%,4.7%,-10.5%,-2.0%,16.2%,5.9%
Cc1cccc(C(=O)N2CCN(c3ccccn3)CC2)c1,-11.6%,8.6%,6.0%,-7.7%,?,-1.4%,24.1%,-15.7%
COC(=O)/N=C/c1c(NCc2ccccc2)nc2c(C)cccn2c1=O,-9.5%,2.1%,1.9%,.,1.3%,.,-0.8%[46.1 µM],14.0%[46.1 µM]
Cc1ccc(C)n1-c1ccsc1C(=O)CC#N,0.9%,6.4%,.,.,-2.5%,.,-17.3%,?
CCN1C(=Nc2ccc(Cl)cc2)SC/C1=C\C(=O)OC,.,11.3%,-5.9%,2.7%,1.2%,-1.0%,11.9%,-12.4%
Cc1ccc(C(=O)NCCc2csc(-c3cccc(F)c3)n2)cc1C,2.5%,.,.,?,.,-8.9%,16.1%[46.1 µM],.
O=C(CSc1ccc2nnc(-c3ccc(F)cc3)n2n1)NCc1ccco1,.,3.2%,2.3%,-14.4%,-0.2%,-17.2%,20.6%,6.2%
O=C(Cn1ccc2ccccc2c1=O)NCCC(=O)Nc1cccnc1,-2.0%,2.3%,-0.9%,-0.4%,2.9%,0.3%,2.1%,8.9%
CC1CCCN(c2ccc(C(=O)NCC3CCCO3)cn2)C1 (stereo not given),68.2%[activator],-3.2%,-9.1%,0.8%,-2.8%,3.9%,?,22.9%
Cn1c(=O)c2c(nc(OC/C=C/c3ccccc3)n2C)n(C)c1=O,.,-28.3%,-10.3%,.,.,.,9.0%,-0.6%
CCOc1ccc(CNC(=O)c2ccc(CSc3nc4ccncc4n3Cc3ccc(F)cc3)cc2)cc1,-9.4%,.,.,14.3%,.,-3.2%,.,?
CC(C)(C)CC(=O)N1CCC(c2nc3c(nnn3Cc3c(F)cccc3Cl)c(=O)[nH]2)CC1,-14.5%,14.7%,3.3%,?,-1.8%,0.9%,?,.
O=S1(=O)NC2CCCCCN2c2ccc(F)cc21 (stereo not given),46.4%[activator],4.6%,-0.3%,-1.1%,2.2%,2.1%,-5.1%,-7.5%
CC(OC(=O)c1oc2ccccc2c1COc1ccccc1)C(=O)NC(N)=O (stereo not given),-28.3%,15.8%,11.5%,.,3.5%,.,-20.5%[46.1 µM],-11.6%[46.1 µM]
COc1ccc(C2OC(=O)CC2C(=O)N2CCN(c3cc(Cl)ccc3C)CC2)cc1OC (stereo not given),-24.0%,-10.9%,-11.1%,?,-8.4%,-6.2%,.,.
O=C(COc1cccc2cccnc12)N/N=C/c1ccccc1O,4.6%,-2.5%,-5.1%,.,1.6%,.,?,?
COc1ccc(OC)c(NC(=O)Nc2cccnc2)c1,-14.9%,3.0%,-15.6%,.,4.4%,.,.,.
Cc1ccc(CC2CC(=O)N(CCc3ccccc3)C2=O)cc1 (stereo not given),16.7%,19.1%,-10.9%,.,-1.5%,.,.,-9.4%[46.1 µM]
Cc1ccccc1OCC1CNC(=O)O1 (stereo not given),1.8%,6.8%,3.0%,.,-0.5%,.,.,.
Cc1ccc2cc3c(NC(=O)C(C)C)nn(C)c3nc2c1,-10.6%,5.1%,-10.6%,?,-0.4%,-2.0%,4.6%,-29.2%
CC1CC(C)CN(c2ncnc3c2cnn3C)C1 (stereo not given),-9.9%,1.2%,.,.,-6.5%,.,9.6%,-2.8%[46.1 µM]
CCn1c(SCC(=O)NC2=NCCS2)nnc1C(C)NC(=O)c1ccccc1F (stereo not given),-12.1%,-5.1%,-2.4%,.,-3.5%,.,11.9%[46.1 µM],-5.5%[46.1 µM]
O=C(NCc1ccc(Cl)cc1)C1CCC(CNc2c(N3CCCCC3)c(=O)c2=O)CC1 (stereo not given),-21.6%,9.1%,20.9%,-4.2%,20.6%,-5.4%,-0.6%,13.8%
Cc1cc(C(=O)N2CCCC(C(=O)c3ccc(Cl)cc3C)C2)no1 (stereo not given),?,34.6%,-19.7%,.,-2.9%,.,-29.1%,?
COCCNS(=O)(=O)c1cc(-c2nn(C)c(=O)c3ccccc23)ccc1C,59.8%[activator],11.8%,-3.5%,-10.1%,3.7%,1.6%,-1.7%,?
CCOC(=O)C1CCN(c2nnc(N3CCCC3=O)s2)CC1,42.5%[activator],-19.7%,2.1%,-11.6%,4.6%,1.0%,?,?
CC(=O)Cc1nsc(NC(=O)c2cc(-c3cccc(C(F)(F)F)c3)oc2C)n1,2.6%,-2.1%,6.0%,?,0.4%,0.8%,7.4%,?

Three entries out of the list, ordered by number of heavy atoms, high to low.
structure,2A StopGo,RE007 growth inh,NS1 function inh,Cruzain inh noDet,SARS PLP yeast,Cruzain Triton,Lassa entry inh,MARV entry inh
CCn1c(SCC(=O)NC2=NCCS2)nnc1C(C)NC(=O)c1ccccc1F (stereo not given),-12.1%,-5.1%,-2.4%,.,-3.5%,.,11.9%[46.1 µM],-5.5%[46.1 µM]
CC(=O)Cc1nsc(NC(=O)c2cc(-c3cccc(C(F)(F)F)c3)oc2C)n1,2.6%,-2.1%,6.0%,?,0.4%,0.8%,7.4%,?
CCOC(=O)C1CCN(c2nnc(N3CCCC3=O)s2)CC1,42.5%[activator],-19.7%,2.1%,-11.6%,4.6%,1.0%,?,?
